Arbovirus inh: antivirals against arbovirus infection, primary screen, cell-based, full library, 10K replicate subset; arbovirus infection cell-based antiviral screen; inhibition, % at 10 µM; actives 0.37% (n = 200,000); AID 1251, 2008;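 active = inhibition from about 30%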;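 note: bluetongue infection of BSR cells; cell survival read as ATP light after 72 h; 0% = infected wells without compound and 100% = uninfected wells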
RecA intein inh: Mtb RecA intein splicing inhibitors, primary screen, biochemical, fluorescence, HTS; inhibition, %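 (about 9 µM by stock and volumes)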; AID 2221, 2009; cell-free RecA intein splicing; actives 0.75% (n = 290,000); in the data active = inhibition above about 30%; inconclusive = no clear call, values can overlap the other calls;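 note: 0% = vehicle wells and 100% = reference inhibitor control wells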
Target sequence (P9WHJ3 whole entry, looked up): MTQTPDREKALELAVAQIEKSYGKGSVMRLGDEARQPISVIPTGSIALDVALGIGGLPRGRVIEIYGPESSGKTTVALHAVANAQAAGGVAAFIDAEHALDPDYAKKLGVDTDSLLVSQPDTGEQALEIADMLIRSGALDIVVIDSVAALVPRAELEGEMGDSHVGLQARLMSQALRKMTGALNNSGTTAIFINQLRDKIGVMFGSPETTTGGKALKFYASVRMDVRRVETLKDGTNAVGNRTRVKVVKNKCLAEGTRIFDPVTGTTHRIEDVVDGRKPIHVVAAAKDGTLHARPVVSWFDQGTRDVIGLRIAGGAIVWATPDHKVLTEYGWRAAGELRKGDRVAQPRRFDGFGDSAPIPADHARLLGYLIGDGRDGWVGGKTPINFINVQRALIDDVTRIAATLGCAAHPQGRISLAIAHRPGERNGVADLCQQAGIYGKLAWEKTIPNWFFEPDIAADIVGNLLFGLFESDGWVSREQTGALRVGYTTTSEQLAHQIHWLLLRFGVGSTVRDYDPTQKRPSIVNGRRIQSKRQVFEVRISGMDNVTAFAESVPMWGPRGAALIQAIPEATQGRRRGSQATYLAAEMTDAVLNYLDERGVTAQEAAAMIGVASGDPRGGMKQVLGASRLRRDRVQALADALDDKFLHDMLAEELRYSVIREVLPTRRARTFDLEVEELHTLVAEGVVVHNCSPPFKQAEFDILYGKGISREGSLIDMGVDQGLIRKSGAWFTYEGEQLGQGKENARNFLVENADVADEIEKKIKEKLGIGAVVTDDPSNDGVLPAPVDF
Mtb bLac sens: beta-lactam sensitization of Mtb H37Rv, H37Rv. M. tuberculosis H37Rv growth with meropenem, percent inhibition; hits of this screen are not shown here. inhibition, % at 25 µM. actives 0.27% (n = 330,000);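 active = about 74% or more and at least 40 points above the plate without the antibiotic, then above 30% in a dose series; inconclusive = first-round hits that could not be retested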;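 note: growth measured after seven days incubation then overnight dye step; 0% = bacteria only wells and 100% = bacteria with antibiotic; twin plates without the antibiotic show which effects depend on it; some results filed as inactive read as strong as hits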
YopH inh: YopH tyrosine phosphatase inhibitors, primary screen, biochemical, fluorescence Ex485/Em525; YopH tyrosine phosphatase [Yersinia enterocolitica]; inhibition, %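 (about 10 µM by stock and volumes)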; actives 0.16% (n = 140,000); AID 898, 2007;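 active = inhibition of 50% or more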;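 note: controls were vehicle for no effect and minimum signal wells for full effect; inactives centre near -20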
Mtb growth: M. tuberculosis H37Rv growth inhibitors, H37Rv strain (AID 1626); actives 0.95% (n = 220,000); M. tuberculosis H37Rv growth inhibition; higher % means a stronger effect; one-dose inhibition, % at 10 µM; IC50 in µM for titrated hits;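 active = confirmed in a dose series; inconclusive = inhibition above 80% but not taken into the dose series; inactive = below 80% or under 30% at every dose of the series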;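 note: bacteria incubated seven days before Alamar blue readout; 0% = bacteria only wells and 100% = bacteria with antibiotic wells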
Arbovirus inh repeat: further read-out of Arbovirus inh, marked with its call; inhibition, %; measured here: 10K subset replicate screen; many hits read low in the repeat;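 first of two repeat runs on a subset; 0% = infected and 100% = uninfected wells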
The depositor's hits bear a star; ? = inconclusive; / = no result given. An excerpt; the hit share may differ from the screen's.

SMILES	Arbovirus inh	RecA intein inh	Mtb bLac sens	YopH inh	Mtb growth	others
Cc1cc2cc(CNC(=O)c3ccc(S(=O)(=O)N(C)C)cc3)ccc2n1C	-9	2.0	0	7	5%
Cc1ccsc1/C=N/NC(=O)C(=O)NCC(C)C	8	0.2	-3	/	-5%
CCC1(c2ccccc2)NC(=O)N(CC(=O)NC2(C#N)CCCCC2)C1=O (centres undefined)	/	-0.1	-3	/	/
Cc1cc(Cl)ccc1OCCCC(=O)N1CCCc2ccccc21	-11	8.5	-2	-8	1%
O=[N+]([O-])c1ccc(NC(=S)NCCc2ccc(Cl)cc2)cc1	-45	8.9	93	-8	?
O=C(NNC(=O)c1ccccc1F)c1cccc(-n2cccc2)c1	/	-1.0	-8	/	/
CC(=O)C1=C(C)OC(N)=C(C#N)C1c1cc2cccc(C)c2nc1Cl (centres undefined)	7	8.1	5	-29	-12%
Cc1ccc(OCC(=O)Nc2ccccc2C(N)=O)cc1	/	-0.6	-1	/	/
COCCCNCCCCOc1ccccc1-c1ccccc1	-26	-1.1	-4	-16	5%
CCOC(=O)C1=C(C)NC(=O)NC1c1ccc(C)o1 (centres undefined)	6	-2.4	-4	/	1%	Arbovirus inh repeat=4
Cc1ccc(S(=O)(=O)N2CC(=O)Nc3ccccc32)cc1C	8	-0.5	7	-25	-6%
COc1cccc(NC(=O)CCC2CCN(C(=O)Cc3cccc(F)c3)CC2)c1	/	0.1	-12	/	/
CCCCN(CC)C(=S)Nc1ccc2nc(N3CCN(C)CC3)cc(C)c2c1	-12	-4.5	94	/	59%
Cc1c(C(=O)N2CCOCC2)sc(NC(=O)Cc2ccccc2)c1C#N	0	1.9	-8	/	-11%
O=C(c1ccc(COc2ccccc2Br)o1)N1CCN(c2ccccn2)CC1	-33	12	2	-14	-4%
O=C(NCc1ccco1)C1CCN(c2nc3ccccc3n2Cc2ccc(F)cc2)CC1	7	1.9	2	-37	11%	Arbovirus inh repeat=-13
Cn1c(=O)cc(SCC(=O)N2CCN(c3ccccc3)CC2)c2ccccc21	-14	0.7	3	9	-8%
Cc1ccc(NC(=O)Cn2c(=O)c(C)nc3ccccc32)cc1	2	5.3	-4	/	3%
CC1CCN(C(=O)COC(=O)C2CCN(S(=O)(=O)c3ccc(Cl)c(C(F)(F)F)c3)CC2)CC1	/	-2.1	-7	/	/
CCOC(=O)c1c(NC(=O)c2c(C)noc2C)sc2c1CCCCC2	-1	1.5	-12	-12	0%
Cc1cc(C(=O)Cn2nnc3ccccc3c2=O)c(C)n1-c1ccccc1F	-28	10	-12	-16	6%
COc1ccc(C)cc1NC(=O)COC(=O)c1c(C)noc1C	-4	-2.5	0	-27	-3%
O=C(NCc1ccc2c(c1)OCO2)C1CC(=O)N(C2CCCCCCC2)C1 (centres undefined)	-5	-1.3	3	-10	5%
COc1ccc([N+](=O)[O-])cc1NC(=O)CN(C)S(=O)(=O)c1ccccc1	-7	0.1	-7	/	-4%
O=C(Nc1cccc(NC(=O)c2c(F)cccc2F)n1)c1c(F)cccc1F	/	0.4	5	/	/

Some of these compounds in order of SMILES length, rising:
SMILES	Arbovirus inh	RecA intein inh	Mtb bLac sens	YopH inh	Mtb growth	others
Cc1cc(Cl)ccc1OCCCC(=O)N1CCCc2ccccc21	-11	8.5	-2	-8	1%
COc1ccc(C)cc1NC(=O)COC(=O)c1c(C)noc1C	-4	-2.5	0	-27	-3%
CC(=O)C1=C(C)OC(N)=C(C#N)C1c1cc2cccc(C)c2nc1Cl (centres undefined)	7	8.1	5	-29	-12%

Later entries.
SMILES	Arbovirus inh	RecA intein inh	Mtb bLac sens	YopH inh	Mtb growth	others
COCCNC(=O)c1cccc(OC2CCN(Cc3ccc(F)cc3OC)CC2)c1	/	-0.4	2	/	/
NS(=O)(=O)c1ccc(NC(=O)COC(=O)c2cc3ccccc3cc2O)cc1	/	-1.6	-9	/	-8%
COc1ccc(-c2csc3ncnc(Cl)c23)cc1	5	3.5	8	/	4%
CCOCCn1c(SCc2cccc(C)c2)nc2c1c(=O)[nH]c(=O)n2C	-3	0.9	-3	-46	-5%	Arbovirus inh repeat=-2
CCc1ccccc1NC1c2ccccc2C(=O)N1Cc1ccco1 (centres undefined)	-4	1.1	-4	-13	3%	Arbovirus inh repeat=-2
CCOC(=O)c1c(S(=O)(=O)NCC(=O)Nc2cc(C)ccc2C)c(C)n(C)c1C	/	-0.4	0	/	/
O=C1c2ccccc2CN1CCSC(=S)N1CCSCC1	6	1.2	4	/	-1%
CS(=O)(=O)N(CC(=O)Nc1ccccc1-c1ccccc1)c1ccc(F)cc1	3	1.1	-4	/	2%
COc1cccc(C(C(=O)NC(C)(C)C)N(Cc2ccco2)C(=O)CCC(=O)Nc2cc(C)on2)c1OC (centres undefined)	2	-2.4	-2	/	-2%
Cc1cc(NC(=O)c2nn(C)c(C)c2[N+](=O)[O-])no1	4	-4.8	-13	-21	-10%
COc1ccc(C(=O)N2CCC(C(=O)Nc3ccc(C)cc3)CC2)cc1	4	2.4	-3	/	8%
COC(=O)c1ccc(C2=NOC(C)(c3nnc(Cc4ccccc4)o3)C2)cc1 (centres undefined)	/	2.9	0	/	/
CC(C)Oc1ccc(CNCC2(O)CCOC(C)(C)C2)cc1 (centres undefined)	-7	3.6	-3	3	-7%
Cc1ccc(NC(=O)c2ccccc2-c2ccc(C(F)(F)F)cc2)cc1S(=O)(=O)N1CCOCC1	2	2.4	6	-32	-2%
CCC(=O)Nc1ccc(C(=O)Nc2ccc(OC)cc2[N+](=O)[O-])cc1	-16	0.1	-3	-26	-4%
COc1ccc(NC(=O)c2ccc(C)o2)c([N+](=O)[O-])c1	-4	-3.0	2	-14	-4%
CCOc1ccc(C(=O)O)cn1	2	0.8	-3	/	1%	Arbovirus inh repeat=4
O=C(c1ccc2c3n(nc2c1)-c1ccc(Cl)cc1CO3)N1CCCCC1	/	4.0	92	/	35%
COc1cccc(NC(=O)CCNC(=O)N2CC(=O)Nc3ccccc32)c1	/	0.3	2	/	/
O=C(c1[nH]nc2c1CCc1ccccc1-2)N1CCN(Cc2ccc3c(c2)OCO3)CC1	/	1.9	8	/	/
O=C(Cn1nnc(-c2ccccc2NC(=O)c2ccco2)n1)Nc1ccccc1	-10	1.9	-5	-21	1%
Cc1nc2ccn(Cc3ccccc3)c(=O)c2cc1C(=O)N1CCN(c2ccccc2)CC1	/	0.9	6	/	/
Cc1cccc(-n2cc(CN3CCN(c4ccccn4)CC3)c(-c3cccc(F)c3)n2)c1	5	/	31	/	15%
O=C1N/C(=C/c2cccn2-c2ccccc2)C(=O)N1Cc1ccc(F)cc1	-7	-4.5	-4	-8	-9%
O=C(O)C1C2CCC(O2)C1C(=O)Nc1cnn(Cc2ccccc2)c1 (centres undefined)	-4	-2.1	7	-40	-3%

Reprinted at random: 2 records from the list.
SMILES	Arbovirus inh	RecA intein inh	Mtb bLac sens	YopH inh	Mtb growth	others
O=C(c1ccc2c3n(nc2c1)-c1ccc(Cl)cc1CO3)N1CCCCC1	/	4.0	92	/	35%
COCCNC(=O)c1cccc(OC2CCN(Cc3ccc(F)cc3OC)CC2)c1	/	-0.4	2	/	/

(more compounds)
SMILES	Arbovirus inh	RecA intein inh	Mtb bLac sens	YopH inh	Mtb growth	others
CN1C(=O)/C(=C\c2cc(Br)cs2)c2ccccc21	15	2.6	-4	/	8%
CCN1C(=O)c2ccccc2Sc2ccc(C(=O)N3CCC4(CC3)OCCO4)cc21	8	2.3	6	-46	/
CC1(C)OC(c2ccccc2)=C/C(=C\C=N\NC(=O)c2ccncc2)O1	/	-46	99	/	?
CC1CC1c1ccc(/C=C(\C#N)C(=O)Nc2cc(Cl)ccc2Cl)o1 (centres undefined)	-2	-25	7	-19	12%
Cc1cccc(OCC(=O)NCC(=O)N/N=C/c2ccc(O)cc2O)c1	/	-6.6	1	/	4%
N#Cc1c(N)n(CCOC(=O)c2cccc(Br)c2)c2nc3ccccc3nc12	11	-13	-6	-26	1%
COc1ccc(C(=O)Nc2cc(=O)n(C)c(=O)n2C)cc1OC	-6	-0.7	2	-39	5%	Arbovirus inh repeat=-4
CCCN(CCC)CCCNC(=O)c1cn(CC)c2ccc(S(=O)(=O)N3CCOCC3)cc2c1=O	/	-2.8	-3	/	/
CC(=O)c1ccc2c(c1)OCCOCCOCCO2	/	2.2	2	/	-6%
O=C(Nc1ccccn1)NC(C(F)(F)F)C(F)(F)F	5	-2.3	-2	-12	-12%
CCC(C)NC(=O)CCSCCC(=O)NC(C)CC (centres undefined)	5	-2.0	-8	-30	7%
Cc1ccc(NC2CCCN(C(=O)CSc3ccccn3)C2)cc1C (centres undefined)	/	-2.3	2	/	/
CC(OC(=O)C(C)N1C(=O)C2C3C=CC(C4CC34)C2C1=O)C(=O)c1ccccc1 (centres undefined)	-6	-2.7	3	-18	-2%
CCNC(=S)N(CCc1cccc(C)c1)Cc1cc2cc(OC)c(OC)cc2[nH]c1=O	-15	2.3	3	-30	-2%
CSc1nnc2c(n1)c(C)nn2-c1cccc(C)c1	-4	3.0	15	-19	-2%
Cc1ccc(Cn2ccc(NC(=O)C3C4CCC(C4)C3C(=O)O)n2)cc1 (centres undefined)	2	3.7	-8	-3	-11%
CCN=C1S/C(=C\c2cn(CC)c3ccccc23)C(=O)N1CC	-14	2.5	18	-17	14%
Clc1ccc(CONc2ncnc3nonc23)c(Cl)c1	-12	2.5	4	/	16%

An excerpt from the list above, for reference:
SMILES	Arbovirus inh	RecA intein inh	Mtb bLac sens	YopH inh	Mtb growth	others
CC1CC1c1ccc(/C=C(\C#N)C(=O)Nc2cc(Cl)ccc2Cl)o1 (centres undefined)	-2	-25	7	-19	12%
Cc1cccc(OCC(=O)NCC(=O)N/N=C/c2ccc(O)cc2O)c1	/	-6.6	1	/	4%
N#Cc1c(N)n(CCOC(=O)c2cccc(Br)c2)c2nc3ccccc3nc12	11	-13	-6	-26	1%
COc1ccc(C(=O)Nc2cc(=O)n(C)c(=O)n2C)cc1OC	-6	-0.7	2	-39	5%	Arbovirus inh repeat=-4
CCCN(CCC)CCCNC(=O)c1cn(CC)c2ccc(S(=O)(=O)N3CCOCC3)cc2c1=O	/	-2.8	-3	/	/
CC(=O)c1ccc2c(c1)OCCOCCOCCO2	/	2.2	2	/	-6%
O=C(Nc1ccccn1)NC(C(F)(F)F)C(F)(F)F	5	-2.3	-2	-12	-12%
CCC(C)NC(=O)CCSCCC(=O)NC(C)CC (centres undefined)	5	-2.0	-8	-30	7%
Cc1ccc(NC2CCCN(C(=O)CSc3ccccn3)C2)cc1C (centres undefined)	/	-2.3	2	/	/
CC(OC(=O)C(C)N1C(=O)C2C3C=CC(C4CC34)C2C1=O)C(=O)c1ccccc1 (centres undefined)	-6	-2.7	3	-18	-2%
CCNC(=S)N(CCc1cccc(C)c1)Cc1cc2cc(OC)c(OC)cc2[nH]c1=O	-15	2.3	3	-30	-2%
CSc1nnc2c(n1)c(C)nn2-c1cccc(C)c1	-4	3.0	15	-19	-2%
Cc1ccc(Cn2ccc(NC(=O)C3C4CCC(C4)C3C(=O)O)n2)cc1 (centres undefined)	2	3.7	-8	-3	-11%
CCN=C1S/C(=C\c2cn(CC)c3ccccc23)C(=O)N1CC	-14	2.5	18	-17	14%
Clc1ccc(CONc2ncnc3nonc23)c(Cl)c1	-12	2.5	4	/	16%
